Rango release inh – prevents RanGTP from dissociating the Rango-importin beta complex. O95149+P62826. 340,000 tested, 0.071% active. Biochemical FRET Rango-importin beta, RanGTP-induced dissociation. Potency, µM (highest dose often 46.1 µM), for the others: at the top dose activity change, negative = inhibition; active means falling FRET ratio curve, often poorly fitted, with flat reads before Ran was added; inconclusive means other falling curves, or compound fluorescence or quenching; inactive means flat or rising ratio curve;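 further: potency means the concentration at half of the fitted maximal effect; % of control where 0% means no effect; nearly all actives have a fitted effect of over 45% in size; -100% = wells without RanGTP and RCC1; the record marks most hits as doubtful in a second field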
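Recombinant Rango FRET biosensor (EYFP–snurportin 1 IBB–cerulean CFP10) at 0.1 uM premixed with 0.25 uM importin beta in PBS, 1 mM DTT, 0.02% Tween-20, 0.1% BSA. Compound added 5 min; RanGTP-RCC1 (0.6 uM Ran, 2 mM GTP, 0.2 uM RCC1) then triggers release, read at 45 min.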
Rango complex inh – Rango-importin beta binding inhibition; Q14974; Rango CFP/YFP FRET sensor + importin beta, 45 min; Potency, µM (top dose mostly 92.2 µM), inactives show top-dose inhibition of complex formation; 340,000 tested, 0.031% active; active = rising FRET ratio curve, often small or poorly fitted; inconclusive = mostly compound fluorescence or quenching in the first reads; inactive = flat curves in all reads;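 further: potency means the concentration at half of the fitted maximal effect; 0% = DMSO wells and 100% = buffer wells lacking importin beta; nearly all actives have a fitted effect of over 15% in size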
Target sequence (Q14974 whole entry, looked up): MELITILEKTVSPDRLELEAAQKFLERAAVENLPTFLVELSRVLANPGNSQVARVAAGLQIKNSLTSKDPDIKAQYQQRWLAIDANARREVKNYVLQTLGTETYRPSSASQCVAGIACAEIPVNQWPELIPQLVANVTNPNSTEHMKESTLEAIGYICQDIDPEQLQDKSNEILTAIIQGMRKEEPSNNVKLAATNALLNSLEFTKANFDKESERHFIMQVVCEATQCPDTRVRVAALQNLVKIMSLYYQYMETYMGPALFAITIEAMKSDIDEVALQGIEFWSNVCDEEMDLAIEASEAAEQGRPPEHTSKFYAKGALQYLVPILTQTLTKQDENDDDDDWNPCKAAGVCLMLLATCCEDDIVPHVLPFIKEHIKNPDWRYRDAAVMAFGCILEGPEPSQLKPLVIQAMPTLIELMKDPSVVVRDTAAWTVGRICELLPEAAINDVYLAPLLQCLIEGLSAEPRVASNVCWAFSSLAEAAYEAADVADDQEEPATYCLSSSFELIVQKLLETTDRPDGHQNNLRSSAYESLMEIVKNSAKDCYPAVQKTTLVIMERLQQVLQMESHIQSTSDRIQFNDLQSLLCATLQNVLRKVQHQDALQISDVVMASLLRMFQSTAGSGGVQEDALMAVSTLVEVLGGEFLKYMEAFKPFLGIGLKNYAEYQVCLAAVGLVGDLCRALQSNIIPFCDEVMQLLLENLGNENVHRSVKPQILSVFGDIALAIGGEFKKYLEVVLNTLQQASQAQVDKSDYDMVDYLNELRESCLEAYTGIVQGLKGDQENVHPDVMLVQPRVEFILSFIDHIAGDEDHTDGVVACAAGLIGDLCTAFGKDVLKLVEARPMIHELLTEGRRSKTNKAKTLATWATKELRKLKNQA
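Inhibition scored from the CFP 486 nm/YFP 530 nm FRET ratio 45 min after adding 0.125 microM importin beta to 50 nM Rango biosensor preincubated 5 min with compound (room temperature, PBS with DTT, Tween-20, BSA). No-importin wells as positive control.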
miR-21 reporter – miR-21 reporter, rising signal; HeLa miR-21 FLuc reporter, luciferase, 48 h; Potency, µM (titrated, usually from 38.3 µM), inactives show at the highest dose reporter change, positive = more light; 340,000 tested, under 10 active; AID 2288; active = well fitted rising curve with a large enough effect; inconclusive = small, poorly fitted or top-dose-only effect; inactive = no such curve, though single readings can be large or run the other way;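 further: % of control where 0% means no effect; miR-21 action dims this reporter so a rising signal means less miR-21 action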
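Luminescence from a firefly luciferase reporter carrying a miR-21 binding site downstream, stably expressed under a CMV promoter in HeLa cells that make miR-21 endogenously, reports miRNA modulation after 48 h compound exposure up to approximately 40uM final.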
GLA inh pH 4.5 – blocks human alpha-galactosidase A at pH 4.5; activity change, negative = inhibition, % at 105 µM; P06280; AID 1467; purified enzyme, 4-MU-alpha-Gal fluorescence, pH 4.5; 230,000 tested, under 10 active; inconclusive = small, poorly fitted or top-dose-only inhibition, or a rising curve; inactive = flat fitted curve, though single readings scatter; no compound was filed as active;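 further: 0% = full activity with enzyme and -100% = basal without enzyme; dose as in the result columns while the protocol names 77 µM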
* hit, by the source's call; ? = inconclusive; / = no result given; & = joins results of further samples. This is a subset; rates above refer to the full screens.

Rango release inh | Rango complex inh | miR-21 reporter | GLA inh pH 4.5 | SMILES
16% | -3.9% | 0% | ? | Fc1cccc(-n2c(-c3ccco3)nc3nc4ccccc4nc32)c1
-5% | ? | 2% | 8 | Cc1ccoc1C(=O)N1CCCCC1C(=O)O (stereo not given)
1% | -1.5% | -4% | 0 | COc1ccc(OC)c(-n2c(=S)[nH]c3c(sc(=S)n3-c3ccccc3)c2=O)c1
3% | 0.3% | -6% | -11 | COc1cc2c(cc1OC)C(COc1ccc(F)cc1)N(C(=O)c1ccco1)CC2 (stereo not given)
-1% | 1.4% | -10% | 7 | O=C(Nc1ccccc1)N1CCN(Cc2ccc3c(c2)OCO3)CC1
? | ? | / | 20 | O=C1OCCN1C(=O)[C@H]1[C@H](c2ccc(Cl)cc2)C(c2ccc(F)cc2)=NN1c1ccc(Br)cc1
0% | -2.8% | 1% | / | CCc1nc2nc(C)c(NS(=O)(=O)c3ccc(C)c(C)c3)c(=O)n2[nH]1
-7% | 0.4% | 2% | -9 | CC(Oc1ncnc2ccccc12)C(=O)Nc1cccc(S(=O)(=O)N2CCOCC2)c1 (stereo not given)
3% | -0.9% | -2% | 2 | O=C(Nc1ccccc1C(=O)NCC1CCCO1)c1ccc(Cl)cc1Cl (stereo not given)
8% | 1.5% | / | / | Cc1cccc(Cn2nnc3ccccc32)c1O
20% | 7.9% | -12% | / | O=C(COC(=O)c1ccc(N2CCCC2=O)cc1)c1ccccc1
-15% | 12% | -7% | / | C=CCSc1nc2sc3c(c2c(=O)[nH]1)CC(C)(CC)OC3 (stereo not given)
/ | / | -46% | -3 | CC1(C)CC(=O)C2=C(C1)Nc1ccccc1N=C2
-6% | 1.2% | -8% | -3 | CCC(C(=O)Nc1ccsc1C(=O)OC)c1ccccc1 (stereo not given)
-3% | 0.6% | -10% | 2 | COc1ccccc1N1CCN(CC(=O)c2c(C)[nH]c3ccccc23)CC1
-3% | -0.3% | 0% | / | O=S(=O)(NCCN1CCOCC1)c1ccc(Cl)c(Cl)c1
2% | -0.9% | -6% | / | COc1cc(CN2CCN(Cc3c[nH]c4ccccc34)CC2CCO)cc(OC)c1 (stereo not given)
-14% | -1.8% | 2%&-2% | / | CC1CCN(S(=O)(=O)c2ccc3c(c2)N(C)C(=O)CC(=O)N3C)CC1
-15% | 0.2% | 0% | / | CC1CCCCN1C(=O)Cn1c(=O)oc2cc(S(=O)(=O)N3CCCCC3)ccc21 (stereo not given)
-6% | 0.5% | -1% | / | Cc1cc(OC(C)C(=O)N2CCN(c3ccc(F)cc3)CC2)c2c(C)cc(=O)oc2c1 (stereo not given)
2% | 0.8% | 23% | -2 | CCn1c2ccccc2c2cc(NC(=O)CSc3nnc(-c4ccc(OC)c(OC)c4)n3N)ccc21
27% | -2.1% | -7% | 8 | C#CCOCCOCCOCCNc1nc(N2CCN(C(=O)[C@H]([C@@H](C)O)n3cc(CCCCN)nn3)CC2)nc(N2CCN(C(=O)[C@H]([C@@H](C)CC)n3cc(CCCN=C(N)N)nn3)CC2)n1
15% | 1.6% | -2% | 2 | CC1(C)C(=O)OC(c2cccs2)C(C)(C)C1=O (stereo not given)
? | ? | 22% | 2 | CCn1c(=N)c(C(=O)NC)cc2c(=O)n3cccc(C)c3nc21
36% | -0.8% | / | / | CC(CCc1ccccc1)NC(=O)CCNS(=O)(=O)c1ccccc1C(F)(F)F (stereo not given)

Other entries follow:
Rango release inh | Rango complex inh | miR-21 reporter | GLA inh pH 4.5 | SMILES
9% | 2.8% | -26% | 5 | O=C(Cc1cccc(Cl)c1)Nc1ccc(Br)cc1
-14% | -0.3% | -1% | 1 | CCOC(=O)CN1CC23C=CC(O2)C(C(=O)NCc2cccs2)C3C1=O (stereo not given)
17% | -1.3% | -3% | -5 | Cc1cccc(NC(=O)c2ccccc2NC(=O)Cc2ccccc2)c1C
-25% | 2.8% | / | / | CCOC(=O)Cn1c(C(F)(F)F)nc2nc(Cl)c(Cl)nc21
0% | -1.3% | 9% | -4 | CC(=O)CCC1C2C(O)C(C(C)C)C(OC(=O)/C=C/c3ccccc3)CC12C (stereo not given)
0% | 0.1% | 0% | 6 | CC1(C)CC(OC(=O)c2ccco2)CC(C)(C)N1O
2% | 0.7% | -44% | / | Cc1ccc(C(=O)N(CCN2CCCCC2)CC2CCCN(C3CCCC3)C2)s1 (stereo not given)
-3% | 1.2% | -4% | / | COCCNC(=O)c1ccc(N2CC3CC(C2)c2cccc(=O)n2C3)c(NC(=O)c2ccc(Br)o2)c1 (stereo not given)
9% | 0.5% | 8% | / | C[C@H](NC(=O)c1nc[nH]c1C(=O)NCC(=O)OCc1ccccc1)C(=O)OCc1ccccc1
13% | -4.5% | -14% | 2 | CCOC(=O)N/N=C/c1c(F)c(F)c(F)c(F)c1F
2% | 2.5% | / | / | Nc1ncnc2c1ncn2[C@@H]1O[C@H](CNS(=O)(=O)c2ccc(-c3ccno3)s2)[C@@H](O)[C@H]1O
? | ? | 3% | -8 | S=c1[nH]c(-c2ccccc2)cn1/N=C/c1cccc2ccccc12
-14% | 5.0% | -3% | -5 | O=C(c1ccccc1)N1CCN(CC#CC2(O)CCCCC2)CC1
-1% | -3.1% | ? | 11 | CCN(CC)CCNc1cc(C)nc2c1C(=O)C(=O)C=C2N1CCCCC1
-5% | -2.9% | 5% | / | O=C(c1cccs1)N1CCN(c2cc(Cl)ccc2Cl)CC1
-2% | 2.1% | -11% | 2 | Cc1ccc(C(=O)N2CCN(C(=O)c3ccccc3)C2c2ccc(N(C)C)cc2)cc1 (stereo not given)
0% | 0.8% | -14% | / | O=C(C1CCN(S(=O)(=O)c2cccs2)CC1)N1CCCCC1
-9% | 6.7% | / | / | Cc1cccc(OCC(=O)Nc2ccncc2)c1
-3% | -0.7% | / | / | COC(=O)c1c(NC(=O)Cc2cccs2)sc(C(=O)NC2CCCCC2)c1C
? | 1.2% | -14% | -9 | O=C(CSc1nc2ccccc2[nH]1)N1c2ccccc2Sc2ccccc21
-9% | 0.7% | 1% | / | COc1cc([N+](=O)[O-])ccc1NC(=O)CCS(=O)(=O)c1ccc2c(c1)n(C)c(=O)c(=O)n2C
5% | -3.0% | -14% | 2 | O=C(/C=C/c1cccs1)N1CCOCC1
33% | -2.2% | -6% | 7 | COc1ccc(-c2csc(-n3ncc(-c4ccccn4)c3N)n2)cc1
9% | -0.2% | / | / | CC1CN(S(=O)(=O)c2cccc(C(=O)N(Cc3nnc(-c4ccccc4Cl)o3)C3CC3)c2)CC(C)O1 (stereo not given)
/ | / | ? | 5 | COc1ccc(S(=O)(=O)Nc2cc(Sc3ncn[nH]3)c(O)c3ccccc23)cc1

(list continues)
Rango release inh | Rango complex inh | miR-21 reporter | GLA inh pH 4.5 | SMILES
-9% | -0.8% | -18% | 1 | CC(Cc1ccccc1)C(=O)NCc1nc2ccccc2s1 (stereo not given)
-2% | -1.5% | -1% | -2 | Cc1ccnc(SCc2cc(=O)c(OC(=O)c3ccc(S(=O)(=O)N4CCCC4)cc3)co2)n1
20% | -0.6% | / | / | O=S(=O)(c1ccc(SCc2ccc(Br)cc2)nc1)N1CCCCC1
? | ? | 12% | / | COc1ccc(C2CC(c3c(O)cc(C)oc3=O)=NCCS2)c(OC)c1 (stereo not given)
5% | -1.2% | 0% | 1 | O=c1c([N+](=O)[O-])c(N2CCCCC2)c2ccccc2n1-c1ccccc1
2% | -3.5% | -4% | 4 | CCN1CCN(CCNC(=O)CS(=O)(=O)Cc2nc(-c3ccc(C)cc3)oc2C)CC1
-2% | -1.6% | -16% | / | CCN(CC)C(=O)c1sc(NC(=O)c2ccc3c(c2)OCO3)c(C(N)=O)c1C
/ | / | 0% | -3 | COc1ccc(C2c3c(oc4ccc(C)cc4c3=O)C(=O)N2c2cc(C)ccn2)cc1OC (stereo not given)
-2% | -4.0% | -6% | -1 | Cc1ccccc1NC(=O)C(C)O/N=C/c1cccc([N+](=O)[O-])c1 (stereo not given)
-4% | -0.7% | 1% | 4 | Fc1ccc(NC(=S)N2CCN(c3ncccn3)CC2)cc1
-2% | -0.6% | / | / | CN1C(=O)N(CC(=O)Nc2ccc(C(F)(F)F)cc2)C(=O)C12CCCCC2
-6% | 0.2% | / | / | CN(C(=O)COC(=O)C1CCN(S(=O)(=O)c2ccc(Cl)cc2)CC1)C1CCS(=O)(=O)C1 (stereo not given)
? | ? | -12% | / | COc1cc(/C=C(\C#N)c2nc3ccccc3[nH]2)ccc1O
-5% | -0.3% | -6% | 8 | Cc1cccc(C)c1NC(=O)COC(=O)C1CC(=O)N(Cc2ccccc2)C1 (stereo not given)
48% | -0.2% | -6% | / | Cc1ccccc1OCC(O)CNC1CCCC1 (stereo not given)
5% | -1.1% | -4% | 3 | CCOC(=O)C1C(=O)NC(N2CCCCC2)=NC1C(C)C (stereo not given)
-1% | 4.5% | ? | / | Cc1oc(-c2ccc(Cl)cc2)nc1CS(=O)CC(=O)NCCCN1CCN(Cc2ccccc2)CC1 (stereo not given)
8% | 0.9% | -6% | -3 | Nc1ccc(Cc2ccccn2)cc1
-17% | 13% | 0% | / | CCC(C)(C)NC(=O)C(c1cccc(OC)c1)N(C(=O)CNC(=O)c1cccs1)c1cccnc1 (stereo not given)
? | ? | -67% | / | O=C1/C(=C/c2cccs2)CCC/C1=C\c1cccs1
14% | -0.1% | / | / | COc1cc(N)c(Cl)cc1C(=O)OC(C)C(=O)Nc1cccc(S(=O)(=O)N2CCOCC2)c1 (stereo not given)
3% | -0.3% | -6% | / | COc1ccc2nc(NC(=O)CN3C(=O)NC4(CCCCC4)C3=O)sc2c1
-17% | -0.1% | 4% | -13 | O=C(c1ccco1)N1CCC(c2nc(-c3ccc(F)cc3)no2)CC1
2% | 1.8% | -3% | / | COc1cccc(C2C(C(=O)c3cccs3)=C(O)C(=O)N2CCN2CCOCC2)c1OC (stereo not given)
0% | 3.1% | 1% | 8 | CC1=Nc2ccc(Br)cc2C(c2ccccc2)N1CC(=O)O (stereo not given)

Reformatted: 2 of the compounds above.
> Fc1ccc(NC(=S)N2CCN(c3ncccn3)CC2)cc1
  Rango release inh: -4%
  Rango complex inh: -0.7%
  miR-21 reporter: 1%
  GLA inh pH 4.5: 4

> CCOC(=O)C1C(=O)NC(N2CCCCC2)=NC1C(C)C (stereo not given)
  Rango release inh: 5%
  Rango complex inh: -1.1%
  miR-21 reporter: -4%
  GLA inh pH 4.5: 3

Back to the main list, starting 4 compounds before the break.
Rango release inh | Rango complex inh | miR-21 reporter | GLA inh pH 4.5 | SMILES
3% | -0.3% | -6% | / | COc1ccc2nc(NC(=O)CN3C(=O)NC4(CCCCC4)C3=O)sc2c1
-17% | -0.1% | 4% | -13 | O=C(c1ccco1)N1CCC(c2nc(-c3ccc(F)cc3)no2)CC1
2% | 1.8% | -3% | / | COc1cccc(C2C(C(=O)c3cccs3)=C(O)C(=O)N2CCN2CCOCC2)c1OC (stereo not given)
0% | 3.1% | 1% | 8 | CC1=Nc2ccc(Br)cc2C(c2ccccc2)N1CC(=O)O (stereo not given)
10% | 0.6% | -28% | / | CCOc1ccc(N(CC(=O)Nc2cccc(OC)c2)S(C)(=O)=O)cc1
0% | -4.8% | -13% | 4 | C/C(=N/NC(=O)CCC(=O)Nc1cccc(Cl)c1)c1ccc(C)cc1
-6% | -1.1% | -7% | -3 | Cc1nc(Sc2ccccc2)c(C#N)c(C)c1[N+](=O)[O-]
? | ? | -9% | 7 | CNC(=O)c1cc2cc(OC)ccc2oc1=N
-8% | -5.9% | -7% | -2 | CNC(=O)c1cc2cccc(OC)c2oc1=O
18% | 6.5% | / | / | Cn1nc(C(=O)N2CCN(S(=O)(=O)c3ccc(Cl)cc3)CC2)c2ccccc2c1=O
-14% | 3.0% | / | / | COC(=O)[C@]1(C)N[C@H](CN(C)C(=O)NC(C)C)[C@@H]2C(=O)N(Cc3ccccc3)C(=O)[C@@H]21
-12% | -0.7% | 8% | / | COc1cccc(OC)c1C(=O)Nc1c(C(=O)N2CCN(c3ccccn3)CC2)oc2ccccc12
1% | 12% | 0% | -6 | O=C(COc1ccc(Br)cc1)N1CCN(c2ccc([N+](=O)[O-])c(N3CCCCC3)c2)CC1
14% | 0.0% | 5% | -3 | COC(=O)c1n[nH]n(-c2ccc(F)c(Cl)c2)c1=O

Bioassay records as filed in PubChem BioAssay.
